# Assay outcomes as filed in PubChem BioAssay.
# StopGo RLuc: FMDV 2A StopGo reporter, Renilla signal | HEK cells with a luciferase reporter of 2A StopGo recoding | Potency, µM (doses to about 57.5 µM), for the others: at the top dose signal change, negative = less light | hit rate 0.32% among 120,000 | AID 1745857; active means well fitted falling curve with a large enough effect; inconclusive means small, poorly fitted or top-dose-only effect; inactive means no such curve, though single readings can be large or run the other way; further: nearly all actives have a fitted effect of over 55% in size; overnight with compound
# StopGo FLuc: lowers the firefly signal of an FMDV 2A StopGo reporter; HEK cells with a luciferase reporter of 2A StopGo recoding; Potency, µM (top dose mostly 57.5 µM), for inactives: top-dose signal change, negative = less light; hit rate 0.23% among 120,000; AID 1745856; active = well fitted falling curve with a large enough effect; inconclusive = small, poorly fitted or top-dose-only effect; inactive = no such curve, though single readings can be large or run the other way; further: nearly all actives have a fitted effect of over 60% in size; overnight with compound
# * hit, by the source's call; ? = inconclusive; & = joins results of further samples; [ ] = dose if it differs, or a comment. On the % scale 0 is the no-effect control and ±100 the full control effect; potency means the concentration at half of the fitted maximal effect. Only part of the results is shown (hit frequency here may not be typical).
canonical_smiles,StopGo RLuc,StopGo FLuc
CN(C)CCN(CC(=O)OC(C)(C)C)C(=O)CCCNC(=O)c1ccccc1,3%,-4%
CCC1CN(S(=O)(=O)c2cc(-c3onc(C)c3C)ccc2C)c2cc(Cl)ccc2O1 (centres undefined),17%,-9%
CC1CCC(C(=O)NC(C)c2ccccc2)CC1 (centres undefined),17%,14%
Cc1ccc(C(=O)Nc2cccc3cnccc23)cc1S(=O)(=O)N1CCCCC1,?,?
C=CCNC(=O)N(C)CC(=O)Nc1c(C)cccc1C,-12%[1.06 µM],2%
COc1ccc(NS(=O)(=O)c2cc3c(cc2C)N(C(C)=O)CCO3)cc1,185%[activator],-4%
CCCC1=C(C(=O)OCC)C(c2cccc3ccccc23)C(C#N)=C(N)O1 (centres undefined),27%,158%[activator]
CCOc1ccc(Br)cc1C1C(C#N)=C(N)Oc2cc3c(cc21)OCO3 (centres undefined),20%,-30%
Cc1cc(C)c2oc(C(=O)Nc3ccc(S(=O)(=O)N4CCCCC4)cc3)cc(=O)c2c1,-14%,-5%
O=C(CCc1ncc(-c2ccc(F)cc2)o1)N1CCC(n2cccc2)CC1,-1%,8%
Cc1ccc2oc(C(=O)N3CCC(c4nc5ccccc5s4)CC3)c(C)c2c1,-16%,-6%
O=C(NCCc1cccc2cccnc12)c1ccc2c(c1)CCCC2,-17%,115%[activator]
Cc1ccc(N(Cc2cccs2)C(=O)C(C)Oc2ccc(Cl)c(C)c2)cc1 (centres undefined),?,?
COc1ccc(NC(=O)CCc2c(C)nn(-c3ccc(N4CCOCC4)nn3)c2C)cc1Cl,-8%,104%[activator]
CCOc1ccc(C(=O)Nc2cccc(-c3nc4ccccc4o3)c2C)cc1,-2%,-4%
CC(C)(C(=O)Nc1ccc(F)c(NC(=O)C2CC2)c1)c1ccccc1,22%,5%
CCN(CC)C(N)=S,7%,-5%
O=C(/C=C/c1ccccc1Cl)Nc1nc(-c2cccs2)ns1,-11%,12%
COC(=O)c1ccc(NC(=O)C(NC(=O)c2ccc(C)cc2)C(C)C)c(C)c1 (centres undefined),23%,0%
COc1cccc(NC(=O)C2CCN(C(=O)N3CC(C)Oc4ccccc43)CC2)c1 (centres undefined),23%,26%
O=C(NC1CC1)C12CC3CC(CC(C3)C1)C2,-5%,4%
Cn1c(=O)c2c(-c3ccccc3)n(-c3ccc(Cl)cc3)cc2n(C)c1=O,18%,4%
CCCc1nc(-c2ccc(-c3ccc(OC)cc3)nc2OC)no1,17%,110%[activator]
COc1ccc2cnn(CC(=O)N3CCN(c4cccc(Cl)c4)CC3)c(=O)c2c1OC,-8%,5%
CCn1nc(C(=O)OCC(=O)NCC(C)C)c2ccccc2c1=O,-4%,1%
COc1ccc(NC(=O)c2c(NC(=O)Cc3ccccc3)sc3c2CCCC3)cc1,9%,-1%
Cc1cccc(C(=O)N[C@@H](C)C(=O)O)c1,7%,6%
COC(=O)c1ccc2oc(=O)c(S(=O)(=O)c3ccccc3)cc2c1,-18%,-13%
CCOC(=O)c1ccc(NC(=O)c2cc(=O)c3cc(C)c(C)cc3o2)cc1,11%,19%
CC(NC(=O)CCCN1C(=O)CCn2nc(-c3cn(C)c4ccccc34)cc21)c1ccccc1 (centres undefined),-29%,?
COc1cc(OC)c2c(C)c(CC(=O)Nc3ccc(CCO)cc3)c(=O)oc2c1,22%,-4%
Fc1ccc(OCc2cc(-c3cccs3)on2)c(Br)c1,13%,-5%
O=C(Nc1ccc(F)c(F)c1)c1cc(S(=O)(=O)N2CCc3ccccc32)ccc1F,-2%,-11%
Cc1nn(CC(=O)Nc2ccccc2N2CCCCC2)c(=O)c2ccccc12,3%,-5%
Fc1ccc(CN2CCN(Cc3cccc(F)c3)CC2)cc1,-7%,-6%
COc1ccc(Oc2coc3cc(OC(=O)c4ccc5c(c4)OCO5)ccc3c2=O)cc1,7%,3%
COc1ccccc1NC(=O)C1CCCN(c2nnc(C)c3c(C)n(-c4ccccc4)nc23)C1 (centres undefined),22%,4%
FC(F)(F)c1ccccc1C(c1ccccc1)N1CCNCC1 (centres undefined),-9%,0%
COc1ccccc1N1CCN(S(=O)(=O)c2cc(C)c(C)cc2OC)CC1,143%[activator],9%
Cc1ccccc1-c1nc(CNC(=O)NC2CCCCC2)c(C)o1,3%,-10%
COc1ccc(C(=O)Nc2cc3c(cc2C#N)OCO3)cc1S(=O)(=O)N1CCOCC1,15%,3%
Cc1oc(-c2cccs2)nc1CC(=O)N1CCCC1c1ccccc1 (centres undefined),35%[activator],-3%
CC1(C)OC(=O)NC1=O,-4%,2%[11.5 µM]
COc1ccc(-c2c(C)c3cc(OS(C)(=O)=O)ccc3oc2=O)cc1,18%,0%
Cc1ccc(C(=O)Nc2c(C(=O)NC(C)(C)C)oc3ccccc23)cc1,1%,0%
Cc1cc(N2CCN(c3cc(Cl)ccc3C)CC2)n2nc(-c3ccccc3)nc2n1,136%[activator],5%
Cc1ccc(CNC(=O)c2cnc(N(C)C)nc2)cc1,-1%,1%
CCCC(C(=O)Nc1nc2ccc(OC)cc2s1)c1ccccc1 (centres undefined),11%,102%[activator]
C[C@]12CC[C@H](O)CC1=CC[C@@H]1[C@@H]2CC[C@]2(C)C(=O)CC[C@@H]12,0%,-13%[11.5 µM]
CC1CCCN(C(=O)c2ccc(CSc3nc4ccncc4n3Cc3ccccc3)cc2)C1 (centres undefined),?,6%
O=S(=O)(CCNCc1cccc(Cl)c1)Cc1ccccc1,1%,-1%
CCOc1ccc(S(=O)(=O)Nc2nc3ccccc3nc2N2CCC(O)CC2)cc1,15%,3%
O=C(NCC(c1ccccc1)c1c[nH]c2ccccc12)c1cccs1 (centres undefined),11%,-1%
Cc1nc2nc(NC(=O)c3ccc(C(C)(C)C)cc3)[nH]n2c(=O)c1Cc1ccccc1,22%,32%[activator]
CCC(C)(CC(=O)O)Cc1nc2ccccc2s1 (centres undefined),7%,139%[activator]
C1CCN(C2CCCNC2)CC1 (centres undefined),-4%,-6%

# Structural class, the compounds so far with an NH in an aromatic ring (2)
canonical_smiles,StopGo RLuc,StopGo FLuc
O=C(NCC(c1ccccc1)c1c[nH]c2ccccc12)c1cccs1 (centres undefined),11%,-1%
Cc1nc2nc(NC(=O)c3ccc(C(C)(C)C)cc3)[nH]n2c(=O)c1Cc1ccccc1,22%,32%[activator]

# Following part:
canonical_smiles,StopGo RLuc,StopGo FLuc
CCCCN1C(=O)C2(/C(=C(\O)c3ccc(OC)cc3)C(=O)C(=O)N2CCOC)c2ccccc21 (centres undefined),11%,-1%
CCCn1nc(C(=O)NCC(c2cccs2)N(C)C)c2ccccc2c1=O (centres undefined),13%,0%
Cc1ccc(NC(=O)Cc2nnc(SCC(=O)NC34CC5CC(CC(C5)C3)C4)n2C)c(C)c1,0%,9%
Cc1cc(Nc2cccc(C(F)(F)F)c2)nc2ccc(NC(=O)c3cncc(Br)c3)cc12,11%,-18%
COc1ccc(NC(=O)CSc2nc3nc(C)cc(C)n3n2)cc1,-17%,9%
O=C(CC1CCCC1)NCCc1cccnc1,9%,0%
CCC(C)NC(=O)c1cc(-c2ccc3c(c2)OCO3)nc2ccccc12 (centres undefined),-9%,-7%
CCOc1ccc(-c2nc(SCC(=O)Nc3ccc4c(c3)OCO4)c(-c3ccc(F)cc3)[nH]2)cc1,329%[activator],6%

# Of the compounds above, 4 have an aryl thioether with sulfur outside any ring.
canonical_smiles,StopGo RLuc,StopGo FLuc
CC1CCCN(C(=O)c2ccc(CSc3nc4ccncc4n3Cc3ccccc3)cc2)C1 (centres undefined),?,6%
Cc1ccc(NC(=O)Cc2nnc(SCC(=O)NC34CC5CC(CC(C5)C3)C4)n2C)c(C)c1,0%,9%
COc1ccc(NC(=O)CSc2nc3nc(C)cc(C)n3n2)cc1,-17%,9%
CCOc1ccc(-c2nc(SCC(=O)Nc3ccc4c(c3)OCO4)c(-c3ccc(F)cc3)[nH]2)cc1,329%[activator],6%

# New compounds follow
canonical_smiles,StopGo RLuc,StopGo FLuc
Cc1cc(N2CCC(C(=O)N(CC(C)C)CC(C)C)CC2)n2nc(C)c(-c3ccc(Cl)cc3)c2n1,-11%,-19%
Cc1ccc(Nc2c(-c3cccnc3)nc3ccc(Cl)cn23)cc1,-4%,-16%
O=C(NCCC1=CCCCC1)c1ccncc1,9%,152%[activator]
O=C(NCC(c1ccc2c(c1)OCO2)N1CCOCC1)c1cccc(Cl)c1 (centres undefined),20%,37%[activator]
CC(C)c1ccc(NC(=O)COCC(=O)N(c2ccccc2)c2ccccc2)cc1,?,-4%
CC(C)c1ccc(OCC(=O)Nc2ccc(S(=O)(=O)Nc3ncccn3)cc2)cc1,-12%,-15%
CC(C)NC(=O)c1ccccc1NC(=O)C1CCN(S(=O)(=O)Cc2ccc(F)cc2)CC1,27%,-3%
CCC(=O)N1c2ccc(S(=O)(=O)N3CCC(C)CC3)cc2CC1C (centres undefined),97%[activator],0%
COc1cccc(C(=O)Nc2ccc(-c3cn4cccnc4n3)cc2)c1OC,13%,19%
O=C(/C=C/C(=O)OCCCc1ccccc1)OCCCc1ccccc1,-7%,-3%
O=C(Cn1nc2c(cc1=O)CCCC2)Nc1cc(C(F)(F)F)ccc1Cl,2%,-8%
O=C(NCc1nc(-c2ccccc2)no1)c1cc2cc(Br)ccc2o1,10%,37%[activator]
O=C(CC1C=CCC1)NC1CCN(Cc2cccc(C(F)(F)F)c2)CC1 (centres undefined),?,?
Cc1c(Cl)c(=O)oc2cc(OC(=O)[C@@H](NC(=O)OC(C)(C)C)C(C)C)ccc12,9%,18%
COC(=O)CCN(c1ccccc1)C(CNS(=O)(=O)c1ccccc1)c1ccccc1 (centres undefined),70%[activator],-13%
Cc1nc(Nc2nc(-c3ccccc3Cl)cc(=O)[nH]2)nc2c(C)cccc12,1%,32%[activator]
COc1cc2c(cc1NC(=O)COc1ccc(Br)cc1C)oc1ccccc12,-6%,-8%
Cc1nc(SC(C)c2cc(F)ccc2F)sc1CC(N)=O (centres undefined),1%,182%[activator]
CNC(=O)c1ccc(CN(C)C(=O)CCc2ncc(-c3ccc(C)cc3)o2)cc1,-27%,-9%
O=C(CSc1ncnc2ccccc12)c1ccc2c(c1)OCCCO2,14µM*,-31%
Cc1cccc(N2CCN([C@H]3CS(=O)(=O)C[C@@H]3S(=O)(=O)c3ccc(Cl)cc3)CC2)c1C,-13%,-6%
CCC(=O)O[C@H]1CC[C@H]2[C@@H]3CCC4=CC(=O)CC[C@]4(C)[C@H]3CC[C@]12C,-5%,9%[11.5 µM]
Cc1ccc(C(=O)O)cc1-n1cccc1,8%,8%
CCc1ccc(CN(Cc2ccco2)C(=O)COc2ccccc2Cl)cc1,15%,-11%
COc1ccc(CNC(=O)c2ccc3c(c2)N(Cc2ccccc2F)C(=O)c2ccccc2S3(=O)=O)cc1,31%,-11%
CC(C)(C)N=Cc1cc(Br)ccc1O,5%,13%
Cc1ccc(-c2nc(CS(=O)(=O)CC(=O)NCc3ccccc3Cl)c(C)o2)cc1,130%&0%[activator],1%&-21%
CCN(CC)C(=O)CSc1nnc2ccc3ccccc3n12,-8%,19%
COc1cc(C(=O)n2nc(-c3cccc(C)c3)nc2N)cc(OC)c1OC,-9%,4%
Cc1cccc(-c2cc(C(=O)O)c3c(-c4ccc(F)cc4)[nH]nc3n2)c1,-17%,-2%
Cc1cc(C)c(C(=O)COC(=O)/C=C/c2cccs2)cc1C,-4%,18%
COc1ccc(NS(=O)(=O)c2ccc(OCC(=O)Nc3ccc4c(c3)OCO4)c(C)c2)cc1,286%[activator],29%
CCOc1ccc(-n2nnc(C(=O)NCc3ccco3)c2N)cc1,4%,125%[activator]
COc1ccccc1-c1nn(CCC(=O)Nc2ccccc2)c2nc(C)cc(C)c12,65%[activator],-12%
C=CC[C@H]1CC(C)=C[C@H](CC=C)N1,-12%&-1%&-15%,20%&16%&-4%
COc1cc(OC)cc(C(=O)Nc2nnc(C(F)(F)F)s2)c1,-9%,-1%
O=C(CCc1c[nH]c2ccccc12)Nc1ccccc1Oc1ccccc1,-7%,30%
COc1ccc(Cc2nnc(SCC(=O)Nc3ccccc3Cl)n2C)cc1,61%[activator],0%
CC(C)(C)c1ccc(C(=O)NCC(c2cccs2)S(=O)(=O)c2ccccc2)cc1 (centres undefined),-24%,-28%
CCOc1ccc2nc(Cl)c(C3CC(c4ccc(OC)cc4)=NN3S(C)(=O)=O)cc2c1 (centres undefined),9%,10%
O=C(c1cccc(C(F)(F)F)c1)N1CCCCCCC1,17%,5%
CCN(C(=O)NCc1noc2ccccc12)c1cc(C)ccc1C,127%[activator],-14%
Cn1nc(C(=O)Nc2ccc(I)cc2)c2ccccc2c1=O,34%[activator],129%[activator]
CC(NC(=O)CC1C=CCC1)C1CCCO1 (centres undefined),-5%,12%
CCn1cc(C(=O)OCC(=O)Nc2cccc(Cl)c2C)c(=O)c2ccc(C)nc21,-4%,-8%
Cc1cccc(-c2ocnc2C(=O)NCCc2ccccc2)c1,1%,136%[activator]
O=C(CSc1nc2ccccc2o1)OCC(=O)c1ccc(Cl)cc1,-5%,-8%
O=C(NC1CC(=O)N(c2ccc(Cl)cc2)C1)c1cccs1 (centres undefined),50%[activator],1%
CCc1cccc(C)c1NC(=O)CSc1nnc(CC)n2c1cc1occc12,?,?
Cc1ccc(-n2c(SCc3nc(-c4ccc(Cl)cc4)no3)nnc2-c2ccncc2)cc1,-14%,-16%
